Bioassay records from PubChem BioAssay.
Mtb hypoxia inh – PubChem AID 1159583; M. tuberculosis hypoxia-regulated fluorescent reporter, fluorescence; fluorescence inhibition, % (no concentration beside the values); 300,000 compounds, 0.1% hits;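 active means 35 to 45% if threefold the growth effect, above 45% if 1.5-fold the growth effect; inactive means the rest, general growth blockers included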;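 further: wells of about 50 µL received 100 nL stock; 0% = vehicle wells and 100% = reference inhibitor wells; whole bacteria with a GFP reporter of the hypoxia response; strong numbers were not always called active; many hits fall short of the cut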
ugtP null kill – growth inhibition of ugtP-null S. aureus, primary screen, RN4220 ugtP deletion, OD600; 16 h; some inactives read as strong as hits; growth inhibition, % (concentration not given with the values); 330,000 compounds, 0.54% hits;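 active means z-score under -3 and OD600 up to 0.15 on both plates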;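 further: plate controls were untreated wells for no effect and antibiotic for full effect; wells of about 80 µL received 100 nL stock; the first replicate is given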
Sa RN4220 lethal – growth inhibition of S. aureus RN4220, primary screen, OD600; 16 h; inhibition, % (concentration not given with the values); 330,000 compounds, 0.33% hits; AID 1259311, 2017;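 active means z-score of -3 or lower and OD600 up to 0.18 on both plates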;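 further: plate controls were untreated cells for no effect and reference antibiotic for full effect; stock transfer was 100 nL into about 80 µL; one replicate is shown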
PrP UTR inh – inhibition of PrP 5' UTR reporter expression; cell-based PrP 5' UTR mRNA reporter, plate reader; inhibition, % (test concentration not listed); 340,000 compounds, 0.35% hits; AID 488862, 2010;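 active means every replicate at 50% or more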;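 further: 0 = median of the neutral control wells; tested in H4 reporter cells; numbers are from one replicate; inactives centre near -14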
BJeLR viability – MLPCN primary cell-based screen for lethality selective to Ras in HRASV12 cells. 300,000 compounds, 0.17% hits. inhibition, % (test concentration not listed). BJeLR (HRASV12) viability, CellTiter-Glo ATP luminescence, 48 h; reference of the scale not given here;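 active means replicate mean above 50%; inconclusive means above 50% but judged a plate artefact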;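 further: 50 nL library stock added to about 25 µL; numbers are from one replicate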
Autofluor counter – counter-screen for toxin protease inhibitors: compound fluorescence | compound autofluorescence counterscreen, microsphere flow cytometry; stronger effect = higher value | fluorescence intensity (test concentration not listed) | 360,000 compounds, 3.1% hits;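 active means at least 3 SD above the mean of all compounds, about 16000 in these data; inconclusive means too few beads counted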;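 further: 100 nL of 1 mM stock went into each well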
Mtb hypoxia inh growth – further read-out of Mtb hypoxia inh, marked with its call; growth inhibition, %; measured here: M. tuberculosis growth (absorbance);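 0% = vehicle and 100% = reference antibiotic; read after six days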
Active calls of the source: *; ? = inconclusive; . = no result given.

1	COc1ccc(CCNc2ccc(S(N)(=O)=O)cn2)cc1
2	O=S(=O)(c1ccc(Cl)s1)N1CCN(c2ncccn2)CC1
3	Cn1c(N)c(C(=O)COC(=O)C2(c3ccc(F)cc3)CCCC2)c(=O)n(C)c1=O
4	CC(C)Sc1nc2c(cnn2-c2ccc(Cl)cc2)c(=O)[nH]1
5	COc1ccc(C(=O)NCc2nnc(SCC(=O)c3ccccc3)o2)cc1
6	COc1ccc(Cc2nnc(SCC(=O)N3CCCC3)o2)cc1
Screen / compound no.	1	2	3	4	5	6
Mtb hypoxia inh	-8	4	3	10	11	5
Mtb hypoxia inh growth	13	15	10	-1	5	11
ugtP null kill	-3	2	-14	7	5	-3
Sa RN4220 lethal	-3.1	5.9	-4.8	3.3	1.9	-2.8
PrP UTR inh	-12	-15	-15	-26	-9	-12
BJeLR viability	1	0	1	0	-1	8
Autofluor counter	5554	8262	2905	2792	5350	2086

7	Cc1ccnc(N2C(=O)C3C4CC(C(Br)C4Br)C3C2=O)c1 (stereo not given)
8	O=C(Nc1cccc2ccccc12)NC1CCCCC1
9	COC(=O)c1cc(Cl)c(NC(=O)Cc2ccccc2)cc1OC
10	CCCCC1CNC(=S)N1CCCC (stereo not given)
11	O=C(Cn1cnc2ccccc2c1=O)NN=Cc1ccc(Br)cc1
12	O=[N+]([O-])c1cccc(-c2cnc3ccccc3n2)c1
Screen / compound no.	7	8	9	10	11	12
Mtb hypoxia inh	5	10	0	-5	-3	9
Mtb hypoxia inh growth	9	8	5	-3	-3	7
ugtP null kill	2	7	4	-4	-3	-5
Sa RN4220 lethal	1.7	4.2	7.0	2.9	4.5	2.7
PrP UTR inh	-13	-13	-34	.	.	-54
BJeLR viability	-10	1	4	.	.	6
Autofluor counter	8411	4575	3979	.	.	5840

13	Cc1nn(-c2ccccc2)c2sc(C(=O)N3CCc4ccccc4C3)cc12
14	Cc1noc(C)c1COc1ccc(C(=O)N2CCN(S(=O)(=O)c3ccccc3)CC2)cc1
15	CS(=O)(=O)N(CC(=O)N1CCN(Cc2ccccc2)CC1)c1cccc(Cl)c1
16	COc1ccc(C(=O)OCC(=O)NC2CCCCCC2)c(OC)c1
17	O=C(COC(=O)c1cc(S(=O)(=O)N2CCCCC2)ccc1Cl)NCc1ccco1
18	COc1ccc(C(=O)N/C(N)=N/c2nc3ccccc3o2)cc1
Screen / compound no.	13	14	15	16	17	18
Mtb hypoxia inh	10	4	10	1	11	.
Mtb hypoxia inh growth	5	3	5	0	11	.
ugtP null kill	-3	-1	10	0	-3	20
Sa RN4220 lethal	13	0.7	4.2	1.7	2.5	25
PrP UTR inh	-28	-24	-9	-4	-36	-62
BJeLR viability	10	.	9	.	3	3
Autofluor counter	5294	6405	3450	.	4135	2868

19	CN1CCN(CCCNc2nc3ccccc3c3nc(-c4ccccc4)nn23)CC1
20	CCN(CC)c1ncnc2c1ncn2Cc1c(Cl)cccc1Cl
21	CC1(C)CC2CC(C)(CN2c2ncnc3ccccc23)C1 (stereo not given)
22	c1cc(C2CCN(Cc3nc(-c4ccc5c(c4)OCO5)no3)CC2)ccn1
23	CCOC(=O)C1C(=O)NC(N2CCN(c3ccccc3)CC2)=NC1c1ccccc1 (stereo not given)
24	O=C(Nc1cccc(Cl)c1)c1cc(S(=O)(=O)NCCc2ccc(Cl)cc2)ccc1F
Screen / compound no.	19	20	21	22	23	24
Mtb hypoxia inh	17	.	14	13	1	1
Mtb hypoxia inh growth	3	.	4	9	8	1
ugtP null kill	11	-1	12	6	0	-14
Sa RN4220 lethal	3.8	3.7	5.9	3.2	0.1	19
PrP UTR inh	2	-6	-19	-26	5	-17
BJeLR viability	.	11	10	4	7	-4
Autofluor counter	4769	4667	11082	4205	23474*	2573

25	O=C(CNC(=O)c1ccc(F)cc1)NN=Cc1cc(Br)ccc1OCc1ccccc1
26	Cc1cccc(NS(=O)(=O)c2ccc(Cl)cc2)n1
27	CCOc1cc(CNn2c(C)nnc2SCC(=O)NC(C)(C)C)ccc1OCC(=O)NC(C)(C)C
28	CN1CCN(c2ccc(S(=O)(=O)N3CCCCC3)cc2NC(=O)c2ccc3ccccc3c2)CC1
29	Cc1ccc(C2CC(c3cccc(C)c3)n3nc(N)nc3N2)cc1 (stereo not given)
30	Cc1nc(SCC(=O)N2CCOCC2)c2c3c(sc2n1)CCC3
Screen / compound no.	25	26	27	28	29	30
Mtb hypoxia inh	14	-4	3	-3	.	24
Mtb hypoxia inh growth	-4	2	5	6	.	23
ugtP null kill	-4	6	-5	4	4	0
Sa RN4220 lethal	-5.3	1.3	2.0	5.1	4.0	7.6
PrP UTR inh	.	-6	-8	2	-13	-16
BJeLR viability	.	-10	-4	-3	2	.
Autofluor counter	.	4443	2459	2155	6224	4091

31	Oc1ccc(-c2csc(Nc3ccccn3)n2)cc1
32	CC12CCC(=O)C=C1CC(O)C1C2CCC2(C)C1CCC2(C)O (stereo not given)
33	COc1cccc(NC(=O)CCCN2C(=O)C3CC=CCC3C2=O)c1 (stereo not given)
34	Nc1ccc(N2CCOCC2)cc1C(F)(F)F
35	O=C(O)C=Cc1ccc(S(=O)(=O)NCc2ccco2)cc1
36	COc1cccc(/C=N\NC(=O)C2=NNC(=O)C2C)c1O (stereo not given)
Screen / compound no.	31	32	33	34	35	36
Mtb hypoxia inh	-7	8	5	12	5	.
Mtb hypoxia inh growth	5	7	-1	-2	5	.
ugtP null kill	-15	3	5	2	5	.
Sa RN4220 lethal	2.1	0.3	4.8	2.0	3.2	.
PrP UTR inh	-78	-22	-16	-19	.	-12
BJeLR viability	-4	.	2	7	.	16
Autofluor counter	3891	4456	5987	4611	.	2684

37	CC(C)(C)C(=O)Nc1cccc(S(=O)(=O)NC2=NCCC2)c1
38	COC(=O)C1=C(C)NC(=O)C1(NC(=O)c1ccncc1)C(F)(F)F (stereo not given)
39	Cc1cc(=O)n2c(sc3ccccc32)c1C#N
40	COc1cccc(NC(=O)COc2cccc(-n3cnnn3)c2)c1
41	c1ccc(C[n+]2cccc(-c3ccccc3)c2)cc1
42	NS(=O)(=O)c1ccc(CCNC(=O)c2ccc3c(c2)OCO3)cc1
Screen / compound no.	37	38	39	40	41	42
Mtb hypoxia inh	-3	-2	16	4	11	1
Mtb hypoxia inh growth	-13	9	-1	0	1	4
ugtP null kill	7	2	11	-1	4	0
Sa RN4220 lethal	2.5	8.2	6.4	-0.2	4.6	1.3
PrP UTR inh	-2	-54	-32	-24	-21	3
BJeLR viability	-5	1	2	1	4	2
Autofluor counter	?	2570	3679	4517	2103	3542

The closing three records of the part above open the next one.
40	COc1cccc(NC(=O)COc2cccc(-n3cnnn3)c2)c1
41	c1ccc(C[n+]2cccc(-c3ccccc3)c2)cc1
42	NS(=O)(=O)c1ccc(CCNC(=O)c2ccc3c(c2)OCO3)cc1
43	O=C(OCCOCCN=C1NS(=O)(=O)c2ccccc21)c1ccc(F)cc1
44	CCOc1ccc(OCCC(=O)NNC(=O)c2ccccc2Cl)cc1
45	CC1CCc2sc(C(=O)NNC(=O)c3ccncc3)cc2C1 (stereo not given)
46	O=C(CCc1c[nH]c2ccccc12)NCC1CCCO1 (stereo not given)
47	CCN(CC)S(=O)(=O)N1CCC(C(=O)NC(C)CCc2ccccc2)CC1 (stereo not given)
48	CCOC(=O)c1c(-n2c(C)cc(C=C3C(=O)NC(=S)NC3=O)c2C)sc2c1CCCC2
Screen / compound no.	40	41	42	43	44	45	46	47	48
Mtb hypoxia inh	4	11	1	0	3	-11	9	4	-2
Mtb hypoxia inh growth	0	1	4	2	-8	5	11	7	5
ugtP null kill	-1	4	0	1	9	-7	-1	10	-7
Sa RN4220 lethal	-0.2	4.6	1.3	4.4	-1.4	-1.0	2.9	4.0	17
PrP UTR inh	-24	-21	3	-6	-24	-23	-22	-13	-7
BJeLR viability	1	4	2	-6	1	-4	-8	-3	-1
Autofluor counter	4517	2103	3542	4061	5956	6395	3663	7867	9156

49	Cc1ccccc1-c1nc(Cc2ccc(Cl)cc2)no1
50	CC1=CC(=O)C(C(C)C)=C/C1=N/OS(=O)(=O)c1ccccc1
51	OCn1ncn(-c2ccccc2)c1=S
52	CC(C)OCCCNC(=O)c1cc(-c2cccnc2)nc2ccccc12
53	CCCCn1c(N)c(N(CC(C)C)C(=O)CSCC(=O)Nc2cccc(C)c2)c(=O)[nH]c1=O
54	CC(C)(C)C(=O)NCc1ccc(C(=O)CSc2nnc(C3CC3)n2C2CC2)s1
Screen / compound no.	49	50	51	52	53	54
Mtb hypoxia inh	7	.	.	6	12	5
Mtb hypoxia inh growth	9	.	.	6	3	2
ugtP null kill	71	.	-4	-4	2	2
Sa RN4220 lethal	1.5	.	-3.1	-1.5	2.0	4.5
PrP UTR inh	-23	-8	-14	-28	2	-6
BJeLR viability	-2	116*	-13	-4	0	.
Autofluor counter	3867	2878	5275	3613	6467	8899

55	Nc1nnc(CC(=O)N/N=C/c2ccc(-c3ccc(Cl)cc3Cl)o2)s1
56	COc1ccccc1CCNC(=O)c1csc2c1CCCC2
57	CCCCCc1cc(=O)oc2c(C(CCN3CCCC(C)C3)c3ccc(N(C)C)cc3)c(OC)cc(OC)c12 (stereo not given)
58	C#CCNC(=O)C1=CC(C)C(CCCO)C(OCC)O1 (stereo not given)
59	Cc1cccc(C)c1NC(=O)C/C(N)=N/O
60	CC(=O)Nc1cccc(C(=O)/C=C/c2cccs2)c1
Screen / compound no.	55	56	57	58	59	60
Mtb hypoxia inh	.	-9	.	13	7	.
Mtb hypoxia inh growth	.	5	.	-2	0	.
ugtP null kill	.	10	-2	1	7	.
Sa RN4220 lethal	.	11	3.5	6.4	4.9	.
PrP UTR inh	-29	0	5	.	-7	-12
BJeLR viability	2	-2	11	.	0	0
Autofluor counter	5092	3544	3637	.	14812	9989

Brought forward from above: 2 compounds, then new ones.
59	Cc1cccc(C)c1NC(=O)C/C(N)=N/O
60	CC(=O)Nc1cccc(C(=O)/C=C/c2cccs2)c1
61	Cc1cccc(C(=O)NNC(=O)CCCCC(=O)NNC(=O)c2cccc(C)c2)c1
62	COc1cc(N)c(Cl)cc1C(=O)OCC(=O)N1CCCC1
63	CC(=O)N1C(C(=O)O)Cc2c([nH]c3ccccc23)C1C (stereo not given)
64	COc1ccc(/C=C2/C(=O)ON=C2C)cc1Br
65	COc1ccc(COC(=O)C2=C(C)NC(=O)NC2c2cccc(OC)c2OC)cc1 (stereo not given)
66	CC(=O)N1CCc2cc(S(=O)(=O)NC(CC(C)C)C(=O)Nc3ccc4c(c3)OCCO4)ccc21 (stereo not given)
67	CCc1nc(-c2cc3ccc(C)cc3[nH]c2=O)no1
68	CCCCC1CCC(C(=O)OC(C)C(=O)Nc2ccc(NC(C)=O)cc2)CC1 (stereo not given)
Screen / compound no.	59	60	61	62	63	64	65	66	67	68
Mtb hypoxia inh	7	.	-3	4	-4	-3	12	6	5	-2
Mtb hypoxia inh growth	0	.	8	5	-7	10	3	6	9	-3
ugtP null kill	7	.	7	7	2	4	6	3	-6	1
Sa RN4220 lethal	4.9	.	-1.4	0.8	-3.1	2.3	1.7	2.3	6.6	3.0
PrP UTR inh	-7	-12	-7	-19	-14	-4	-21	0	-24	2
BJeLR viability	0	0	-5	-5	-4	-2	3	.	5	2
Autofluor counter	14812	9989	3457	5743	3621	3682	3178	3023	9970	5856
